T cruzi repl = blocks replication of Trypanosoma cruzi | T. cruzi beta-gal in NIH3T3, luminescence, 90 h | inhibition, % (no concentration beside the values) | actives 1.4% (n = 300,000);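 active = mean inhibition across valid replicates above about 55%, limit read from the data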;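 note: signal also drops with host cell toxicity which is not excluded here; 0% = plate median of DMSO wells and 100% = zero luminescence signal; higher percent means less beta-gal luminescence so fewer parasites; stock transfer was 50 nL into about 50 µL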
Beta apoptosis = beta cell apoptosis inhibition; INS-1E cytokine-induced death, ATP luminescence, 48 h; percent of positive-control rescue, neutral wells zero; protection from apoptosis, % (concentration not given with the values); actives 0.8% (n = 300,000); AID 435005;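 active = all replicates at 75% or more, or half of them and the mean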;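 note: 0% = cytokine-treated negative control wells and 100% = positive control rescue; higher means more ATP so stronger rescue from cytokine killing; wells of about 40 µL received 100 nL stock; the first replicate is given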
rRNA inh HTS = inhibits bacterial ribosomal RNA function over humanized ribosomes; E. coli WT GFP vs humanized-ribosome RFP mutants, fluorescence, 24 h; active compounds read low; DMSO median 0, no signal -100; actives 1.6% (n = 350,000); AID 720706; GFP signal change (wild-type ribosome), % (test concentration not listed);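 active = significant combined selectivity score with lowered wild-type GFP, culture density cut under 30%, mutant RFP and density less affected; inactive = any of these conditions unmet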; note: one replicate is shown; some compounds called inactive have numbers as strong as hits
Ecoli growth = blocks Escherichia coli growth; OD600, 23 h; active compounds read low; OD600 absorbance (concentration not given with the values); actives 0.21% (n = 330,000); AID 1053175;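 active = OD600 absorbance below the run mean of sample wells minus 3.6 SD, in any replicate, cut at about 0.56 in these data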;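 note: stock transfer was 300 nL into about 60 µL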
FGF22 binding = FGF22 (human) thermal shift binding. recombinant FGF22 thermal shift, SYPRO orange fluorescence; percent of sucrose octasulfate shift, DMSO zero. calls only at 9.99 µM. actives 1.5% (n = 340,000). Q9HCT0;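 active = melting point raised past a set limit in the mean and every replicate; three in four hits are not shown here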
Target sequence (Q9HCT0 whole entry, looked up): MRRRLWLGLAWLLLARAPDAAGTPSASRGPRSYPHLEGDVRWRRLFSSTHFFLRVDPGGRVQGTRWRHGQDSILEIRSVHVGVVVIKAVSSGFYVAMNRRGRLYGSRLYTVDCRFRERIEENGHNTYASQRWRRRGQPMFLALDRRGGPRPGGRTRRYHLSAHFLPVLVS
Bfl-1 A1 inh = inhibitors of the anti-apoptotic protein A1, read as caspase activation; MEF A1-2A-BIM cells, Caspase-Glo 3/7 luminescence, 3 h; percent of clofoctol response, vehicle zero; caspase activation, % (concentration not given with the values); actives 0.066% (n = 330,000); AID 2462;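 active = over half of replicate activation scores above 10%, or exactly half above 10 with the replicate mean above 10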;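 note: wells of about 30 µL received 50 nL stock; many hits fall short of the cut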
UCH37 DUB inh = blocks the human deubiquitinase UCH37; Q9Y5K5; purified proteasome/UCH37, Ub-AMC cleavage fluorescence; inhibition, % (concentration not given with the values); actives 0.33% (n = 330,000); AID 588478;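 active = mean of two replicates above 20%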;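 note: 0% = compound-free wells with enzyme and 100% = wells lacking proteasome; stock transfer was 100 nL into about 20 µL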
Target sequence (Q9Y5K5 whole entry, looked up): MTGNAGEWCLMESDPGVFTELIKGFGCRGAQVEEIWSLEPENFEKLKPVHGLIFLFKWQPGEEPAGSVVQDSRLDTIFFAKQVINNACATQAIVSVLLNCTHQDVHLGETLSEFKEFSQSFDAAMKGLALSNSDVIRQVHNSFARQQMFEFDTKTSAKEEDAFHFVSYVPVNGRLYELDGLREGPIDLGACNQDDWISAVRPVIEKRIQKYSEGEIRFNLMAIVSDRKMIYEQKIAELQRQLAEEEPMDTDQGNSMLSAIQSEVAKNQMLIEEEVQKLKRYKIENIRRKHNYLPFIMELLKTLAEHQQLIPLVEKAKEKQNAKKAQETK
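system = Proteasome-associated human UCH37 deubiquitinase | amount = 0.15 nM proteasome as dispensed | medium = pH 7.4 Tris-HCl (50 mM) with ovalbumin, ATP-MgCl2, DTT | incubation = 30 min preincubation with enzyme, 25 min cleavage at room temperature | detection = AMC fluorescence 355/460 nm | read-out basis = percent inhibition | controls = no-proteasome and no-compound wells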
MLL AF4-AF9 inh = inhibitors of human MLL-AF4/AF9 interaction; P42568; AlphaScreen, biotin-AF4 peptide binding to FLAG-AF9; inhibition, % at 10 µM; actives 0.47% (n = 350,000);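 active = every replicate reaching a set inhibition limit, whatever the replicate mean, cut at about 25% in these data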;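 note: 0% = plate neutral control median and 100% = total signal loss; the record names both 10 and 1 µM as test concentration; the first replicate is given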
rRNA inh HTS OD600 = further read-out of rRNA inh HTS, marked with its call; OD600 change, %; measured here: OD600 growth;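 optical density of the mix in the first replicate; 0 = DMSO median and -100 = no signal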
rRNA inh HTS RFP = further read-out of rRNA inh HTS, marked with its call; RFP signal change, %; measured here: RFP humanized mutant strains;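 first replicate; 0 = DMSO median and -100 = no signal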
Active calls of the source: *; i = inactive; / = no result given. Some of the compounds tested. The share of hits here may be higher or lower than overall.

Fields: T cruzi repl	Beta apoptosis	rRNA inh HTS	rRNA inh HTS OD600	rRNA inh HTS RFP	Ecoli growth	FGF22 binding	Bfl-1 A1 inh	UCH37 DUB inh	MLL AF4-AF9 inh
- Cc1ccc(NC(=O)CN2C(=O)NC(C)(CC(C)C)C2=O)c(Br)c1 (centres undefined)
    /	4	-5	-5	-3.6	0.67	i	0.2	3.5	0.9
- COc1cc(C2CC(=O)c3cnc(NC(=O)COc4ccccc4)nc3C2)cc(OC)c1OC (centres undefined)
    -11	2	/	/	/	0.73	/	-0.7	-0.6	/
- CC(=O)N=c1sc(C(C)(C)C)c(C)n1C
    5	-3	/	/	/	0.74	/	-0.7	0.7	/
- COc1ccc2oc(=N)c(C(=O)Nc3ccc(F)cc3)cc2c1
    0	3	13	17	-0.1	0.65	i	-0.4	1.3	-1.1
- CS(=O)(=O)N1CCN(c2ccc(NC(=O)COc3ccccc3)cc2)CC1
    -11	3	10	6	0.4	0.69	i	0.3	-0.1	0.4
- Nc1c(C(=O)c2ccccc2)oc2ccccc12
    -7	4	/	/	/	0.61	/	0.6	0.8	10
- CC(C(=O)N1CCCCCC1)N(c1ccc(Cl)cc1)S(C)(=O)=O (centres undefined)
    -12	6	3	-3	0.0	0.67	i	0.2	4.9	-1.8
- C=CCSc1nc2ccccc2c(=O)n1Cc1ccccc1
    33	11	-21	-13	-2.6	0.69	i	-0.9	1.6	-6.6
- Cc1cccc(CN(C(=S)Nc2c(C)cccc2C)c2cccnc2)c1
    -14	-3	19	14	1.5	0.69	i	-0.7	0.9	0.0
- COc1ccc(Cc2cc(NCc3ccccc3)c3ncn(C(C)C)c3c2)cc1
    /	-12	-8	-10	-0.6	0.71	i	-0.9	4.5	3.8
- COc1ccc(CC(=O)NCc2n[nH]c(=S)n2-c2ccccc2OC)cc1
    -9	-4	5	4	-0.6	0.67	i	-0.7	-2.0	-5.1
- CCOC(=O)C1=CC[C@H]2c3c(c4ccccc4n3C)C(=O)C1N2C
    /	4	-1	11	37	0.79	i	1.9	4.3	0.2
- O=C(CCc1ccccc1)Nc1ccc2c(c1)OCO2
    -4	6	16	15	-3.4	0.58	i	-0.8	2.2	-4.6
- N#C/C(=C\c1cccnc1)c1ccccc1[N+](=O)[O-]
    -3	-11	-4	-27	0.5	0.59	i	0.5	3.1	-1.7
- Oc1ccccc1C1=Nc2nc3ccccc3n2C(c2ccccc2)C1 (centres undefined)
    16	2	/	/	/	0.79	/	-12	6.5	/
- CCc1ccc(NC(=O)CCn2c(=O)oc3ccccc32)cc1
    1	4	/	/	/	0.64	/	0.1	0.7	/
- CCc1ccc2oc(C(=O)Nc3cccnc3)c(C)c2c1
    -4	-4	/	/	/	0.69	/	-8.2	-2.2	/
- Cn1c(SCc2nc(-c3ccc(Br)cc3)no2)nnc1-c1ccco1
    18	1	/	/	/	0.69	/	0.6	4.9	/
- CSc1ccc(C(=O)C2CCCN(C(=O)Cc3nonc3C)C2)cc1 (centres undefined)
    -4	2	/	/	/	0.72	/	0.9	0.3	/
- CCOC(=O)c1c(NC(=O)CN2C(=O)NC3(CCC(C)CC3)C2=O)sc(C(=O)N(C)C)c1C (centres undefined)
    9	2	-1	-5	-1.0	0.7	i	0.0	3.2	-3.1
- Cc1ccc(NC(=O)COc2coc(CN3CCc4ccccc43)cc2=O)cc1Cl
    10	11	5	4	1.7	0.71	i	0.8	0.6	0.0
- O=C(O)c1cccc(-n2cccc2/C=C/[N+](=O)[O-])c1
    -7	-2	10	2	5.5	0.7	/	0.3	2.7	-3.0
- Cc1ccc(C(=O)N2CCC(C(=O)NCc3ccco3)CC2)cc1
    -1	1	4	11	0.0	0.69	i	0.6	0.2	-1.4
- CCC(=O)Nc1cccc(NC(=O)CSc2nnc(C(C)C)n2CC)c1
    1	-6	/	/	/	0.65	/	0.5	-0.8	/
- COc1ccc2[nH]c(=O)c(CN(C(C)=O)c3ccc(C)cc3C)cc2c1
    -3	-3	-6	-8	-1.6	0.64	i	0.3	-49	-1.8
- CC(C)(C)C(=O)Nc1cccc(-c2ncon2)c1
    -35	-2	17	12	5.1	0.69	i	1.1	4.4	-2.7
- CCCCC(=O)Nc1ccc(N2CCN(C(=O)c3ccco3)CC2)cc1
    -2	2	2	-12	2.6	0.65	i	-0.1	1.1	6.6
- Cc1ccc(-n2nc(C)c(C(C)(O)C(F)(F)F)c2N)cc1 (centres undefined)
    -3	-3	/	/	/	0.6	/	0.2	0.3	/
- COCc1cc(C)nc(SCc2ccc(Br)cc2)c1C#N
    2	0	-6	-17	0.2	0.72	i	-0.2	4.6	-5.4
- CC1(C)Cc2c(sc3nnn(Cc4ccccc4)c(=O)c23)CO1
    8	-6	/	/	/	0.67	/	1.1	1.9	/
- Cc1cccc(NNC(N)=S)c1C
    7	-7	11	15	1.4	0.71	/	0.8	5.7	2.3
- O=C(O)COc1ccc(Cl)cc1CO
    -29	-4	/	/	/	0.7	/	-0.5	4.3	/
- CN(C)C1=NC[C@H](Cc2ccccc2)N1CCCC1CCCCC1
    /	87*	-30	-43	-6.0	/	i	-0.6	-0.6	6.2
- C1CCC(OCCN2CCN(CCOC3CCCCC3)CC2)CC1
    55*	2	11	12	0.0	0.67	i	-0.9	-0.5	-30
- CCOC(=O)Nc1ccc2c3c(cccc13)-c1ccccc1-2
    /	/	-3	4	3.4	0.67	i	/	-318	2.6
- COC(=O)c1c(NC(=O)CC2SC(N)=NC2=O)sc2c1CCC(C)C2 (centres undefined)
    12	-9	/	/	/	/	/	0.6	1.2	/
- Cc1cc(NC(=O)CCC2CCCC2)no1
    2	-6	/	/	/	0.73	/	1.8	3.2	/
- Cc1ccc(OCC(O)CN2CCN(CCO)CC2)c(C)c1 (centres undefined)
    4	-2	-8	6	-4.6	0.71	i	3.1	0.7	0.8
- CC(NC(=O)c1ccccc1)C(=O)OCC(=O)c1ccc(Br)cc1 (centres undefined)
    -14	-10	-13	14	3.6	0.68	i	/	2.0	-5.1
- COc1ccc(OC)c(/C=C/C(=O)OCC(=O)NC2CCCCCCC2)c1
    /	-1	2	-37	-6.4	0.67	i	0.7	-125	2.0
- S=C(NCc1cccnc1)Nc1ccc2c(c1)OCO2
    -12	-1	2	4	2.0	0.68	i	-1.6	2.4	-0.4
- O=S(=O)(Nc1ncccn1)c1ccc(NC(=S)Nc2ccccc2)cc1
    -16	-5	11	16	-0.1	0.63	i	-0.1	0.8	-4.5
- CCc1ccc(NC(=O)CC2C(=O)N(c3ccc(C)cc3)C(=O)N2C2CC2)cc1 (centres undefined)
    4	-6	-4	-8	-3.6	0.68	i	1.0	4.2	0.8
- O=C(O)c1ccc(NS(=O)(=O)/C=C/c2ccccc2)cc1O
    18	-8	4	0	3.8	0.69	i	0.7	2.5	4.7
- O=C(CCN1C(=O)CSC1=O)Nc1ccc(Br)cc1
    -16	/	/	/	/	0.73	/	0.7	0.7	/
- NC(=O)c1ccsc1NC(=O)COC(=O)CNC(=O)c1cccc([N+](=O)[O-])c1
    /	-6	1	4	4.7	0.65	i	-1.5	4.6	-0.8
- Nc1ccc(S(=O)(=O)c2ccc(Cl)cc2)cc1
    2	3	/	/	/	0.7	/	0.7	1.1	/
- CCC(=O)Nc1sc(Cc2ccccc2)c(C)c1C(N)=O
    17	-2	-51	-49	-16	0.68	i	-0.2	0.7	0.2
- COc1cccc(/C=C2/C(=O)NN(c3ccc(Br)cc3)C2=O)c1O
    0	/	-11	-5	1.4	0.65	/	0.6	12	-2.4
- Cc1nc(-c2ccc(F)cc2)c(CC(=O)N(C)CC(=O)Nc2ccc(Cl)c(C(F)(F)F)c2)s1
    /	/	1	-14	4.8	0.68	i	/	-0.7	-0.4
- COc1ccc(C2CC(c3cccs3)=NN2C(=O)CCC(=O)O)cc1 (centres undefined)
    -8	-3	7	-6	0.4	0.7	i	-0.5	-3.9	0.8
- CCOC(=O)C1CCN(C(=O)/C=C/c2cc(OC)c(OC)c(OC)c2)CC1
    -3	-17	/	/	/	0.71	/	0.8	-7.2	/
- O=C(OC1CCCCC1=O)c1cc(S(=O)(=O)N2CCOCC2)ccc1F (centres undefined)
    -22	-5	9	15	2.5	0.72	i	-0.5	2.6	-0.2
- CC(=O)Nc1ccc(S(=O)(=O)N2CCC(NC(=O)C(Cc3cccn3C)NC(C)=O)CC2)cc1 (centres undefined)
    /	-4	/	/	/	0.7	/	-0.5	-1.0	/
- O=C(CCn1c2c(c3ccccc31)CCCC2)NNC(=O)c1ccc(Cl)c([N+](=O)[O-])c1
    0	1	3	-10	2.9	0.71	i	0.6	1.3	9.8

Complete entries as entered above. Order of values: T cruzi repl | Beta apoptosis | rRNA inh HTS | rRNA inh HTS OD600 | rRNA inh HTS RFP | Ecoli growth | FGF22 binding | Bfl-1 A1 inh | UCH37 DUB inh | MLL AF4-AF9 inh
O=C(OC1CCCCC1=O)c1cc(S(=O)(=O)N2CCOCC2)ccc1F (centres undefined) is listed as -22 | -5 | 9 | 15 | 2.5 | 0.72 | i | -0.5 | 2.6 | -0.2
COc1ccc(OC)c(/C=C/C(=O)OCC(=O)NC2CCCCCCC2)c1 is listed as / | -1 | 2 | -37 | -6.4 | 0.67 | i | 0.7 | -125 | 2.0
CCOC(=O)C1CCN(C(=O)/C=C/c2cc(OC)c(OC)c(OC)c2)CC1 is listed as -3 | -17 | / | / | / | 0.71 | / | 0.8 | -7.2 | /
CCOC(=O)Nc1ccc2c3c(cccc13)-c1ccccc1-2 is listed as / | / | -3 | 4 | 3.4 | 0.67 | i | / | -318 | 2.6
CCC(=O)Nc1sc(Cc2ccccc2)c(C)c1C(N)=O is listed as 17 | -2 | -51 | -49 | -16 | 0.68 | i | -0.2 | 0.7 | 0.2
